YB-1 expr inh – inhibitors of YB-1 gene expression, primary screen, cell-based, fluorescence. delta delta Cp (YB-1 minus CDIP) (no concentration beside the values). hit rate 0.37% among 30,000. U2OS, qRT-PCR YB-1 vs CDIP delta delta Cp, 16 h; active compounds read high; zero = DMSO, each unit about twofold;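 active means delta delta Cp rounded down to an integer at or above 3, about 3 SD of DMSO wells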;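 further: higher means less YB-1 transcript or more CDIP transcript relative to DMSO; stock transfer was 100 nL into about 100 µL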
MITF inhib – inhibitors of MITF, primary screen, MITF inhibitor project, cell-based, luminescence; AID 2240, 2010; inhibition, % (test concentration not listed); hit rate 0.28% among 37,000; TRPM1 promoter luciferase, 24 h;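 active means most replicates at 85% or more, or half of them and the mean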;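 further: human melanocyte line stably carrying TRPM1 promoter luciferase reporter; 0% = vehicle wells and 100% = a positive control; the first replicate is given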
PD-1 reverse act – activators reversing PD-1 mediated T-cell inhibition, primary screen, luminescence, primary human CD4 T cells, PD-L1 beads. AID 2316, 2010. 29,000 tested, under 10 active. activation, % (concentration not given with the values). CellTiter-Glo 96 h;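 active means replicate mean of 50% or more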;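 further: 0% = median vehicle wells and 100% = positive control; 100 nL library stock added to about 50 µL; numbers are from one replicate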
Shh pathway inh – Hedgehog pathway signaling inhibitors, primary screen, luminescence, Shh-LIGHT2 cells, Gli-luciferase | Shh-LIGHT2 Gli-luciferase reporter, 30 h | inhibition, % (concentration not given with the values) | hit rate 2.1% among 22,000 | AID 2313, 2010;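 active means replicate mean of 65% or more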;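 further: pathway switched on by Shh-conditioned medium diluted 1 in 25 in low serum; 100 nL library stock added to about 40 µL; 0% = median of neutral wells and 100% = positive control level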
* hit, by the source's call; x = no result given.

SMILES | YB-1 expr inh | MITF inhib | PD-1 reverse act | Shh pathway inh
Cc1ccc(CC(CC(=O)O)C(=O)Nc2cc(C)ccc2C)cc1 (stereo unspecified) | x | -6 | 1.7 | x
C[C@@H]1CCCCO[C@@H](CN(C)C(=O)Nc2ccc3c(c2)OCO3)[C@@H](C)CN([C@H](C)CO)C(=O)c2cc(NC(=O)Nc3cccc4ccccc34)ccc2O1 | 0.35 | 2 | 0.4 | -35
CCn1cc(CN(C)C(=S)Nc2ccc(OC)c(OC)c2)c(C)n1 | x | -18 | 1.3 | x
COc1ccc(NC(=O)Nc2ccc3c(c2)CC(=O)N([C@H](C)CO)C[C@H](C)[C@H](CN(C)C(=O)Nc2ccc(OC)cc2)O3)cc1 | 0.17 | 2 | x | 1
C[C@H](CO)N1C[C@H](C)[C@H](CN(C)Cc2ccc(C(=O)O)cc2)Oc2ccc(NC(=O)Nc3ccc(F)cc3)cc2CC1=O | 0.27 | 8 | 4.2 | -65
C[C@H](CO)N1C[C@H](C)[C@H](CN(C)CC2CC2)Oc2ccc(NC(=O)CCCN(C)C)cc2C1=O | 0.31 | -2 | 0.0 | -12
C[C@@H]1CN([C@H](C)CO)C(=O)c2cccc(NC(=O)C3CC3)c2O[C@@H]1CN(C)Cc1ccc2c(c1)OCO2 | -0.2 | -2 | 1.2 | -18
CCCOc1ccc(N)cc1N | 0.011 | 1 | 0.6 | x
C[C@H]1CN([C@@H](C)CO)C(=O)c2cc(NC(=O)C3CCCCC3)ccc2O[C@@H]1CN(C)C(=O)Nc1ccc2c(c1)OCO2 | -0.048 | 9 | x | x
C[C@H](CO)N1C[C@H](C)[C@@H](CN(C)Cc2ccccc2)Oc2ccc(NC(=O)Cc3ccccc3)cc2C1=O | 0.12 | 0 | -1.5 | 13
C[C@@H]1CN([C@@H](C)CO)C(=O)c2cc(NC(=O)Cc3cn(C)c4ccccc34)ccc2O[C@@H]1CN(C)S(=O)(=O)c1ccc(F)cc1 | -0.16 | 21 | -4.5 | x
C[C@@H]1CN([C@@H](C)CO)C(=O)Cc2cc(NC(=O)Cn3cnnn3)ccc2O[C@@H]1CN(C)Cc1ccc(-c2ccccc2)cc1 | -0.064 | 10 | 1.1 | -1
COc1ccc(NC(=O)N(C)C[C@@H]2Oc3ccc(NC(=O)NC4CCCCC4)cc3C(=O)N([C@@H](C)CO)C[C@H]2C)cc1 | 0.19 | 5 | x | -22
CC1(C)CC[C@@]2(C(=O)O)C(C1)C1=CCC3[C@@]4(C)CC[C@H](O[C@@H]5O[C@H](C(=O)O)[C@@H](O[C@H]6OC[C@](O)(CO)[C@H]6O)[C@H](O)[C@H]5O)C(C)(C)C4CC[C@@]3(C)[C@]1(C)C[C@H]2O (stereo partly specified) | 0.5 | -4 | -0.4 | -8
CCCC(=O)Nc1ccc2nc(SCc3ccccc3C#N)sc2c1 | x | -59 | 0.1 | x

Ordered by length of the SMILES (descending): eight of the compounds above.
SMILES | YB-1 expr inh | MITF inhib | PD-1 reverse act | Shh pathway inh
CC1(C)CC[C@@]2(C(=O)O)C(C1)C1=CCC3[C@@]4(C)CC[C@H](O[C@@H]5O[C@H](C(=O)O)[C@@H](O[C@H]6OC[C@](O)(CO)[C@H]6O)[C@H](O)[C@H]5O)C(C)(C)C4CC[C@@]3(C)[C@]1(C)C[C@H]2O (stereo partly specified) | 0.5 | -4 | -0.4 | -8
C[C@@H]1CCCCO[C@@H](CN(C)C(=O)Nc2ccc3c(c2)OCO3)[C@@H](C)CN([C@H](C)CO)C(=O)c2cc(NC(=O)Nc3cccc4ccccc34)ccc2O1 | 0.35 | 2 | 0.4 | -35
COc1ccc(NC(=O)Nc2ccc3c(c2)CC(=O)N([C@H](C)CO)C[C@H](C)[C@H](CN(C)C(=O)Nc2ccc(OC)cc2)O3)cc1 | 0.17 | 2 | x | 1
C[C@H]1CN([C@@H](C)CO)C(=O)c2cc(NC(=O)C3CCCCC3)ccc2O[C@@H]1CN(C)C(=O)Nc1ccc2c(c1)OCO2 | -0.048 | 9 | x | x
C[C@H](CO)N1C[C@H](C)[C@@H](CN(C)Cc2ccccc2)Oc2ccc(NC(=O)Cc3ccccc3)cc2C1=O | 0.12 | 0 | -1.5 | 13
Cc1ccc(CC(CC(=O)O)C(=O)Nc2cc(C)ccc2C)cc1 (stereo unspecified) | x | -6 | 1.7 | x
CCCC(=O)Nc1ccc2nc(SCc3ccccc3C#N)sc2c1 | x | -59 | 0.1 | x
CCCOc1ccc(N)cc1N | 0.011 | 1 | 0.6 | x

Next part.
SMILES | YB-1 expr inh | MITF inhib | PD-1 reverse act | Shh pathway inh
COc1ccc(S(=O)(=O)Nc2cccc3c2O[C@@H](CN(C)C(=O)NC(C)C)[C@H](C)CN([C@H](C)CO)C3=O)cc1 | -0.48 | 5 | 1.4 | 26
C[C@@H]1CN([C@@H](C)CO)C(=O)c2cc(NC(=O)c3ccncc3)ccc2O[C@@H]1CN(C)CC1CCCCC1 | 0.012 | -3 | 1.1 | -9
C[C@@H]1CN([C@@H](C)CO)C(=O)c2cc(NS(=O)(=O)c3ccc(F)cc3)ccc2O[C@H]1CN(C)CC1CC1 | 0.35 | -2 | 1.2 | 2
Cc1cc(C(=O)Nc2cccc3c2O[C@@H](CN(C)S(C)(=O)=O)[C@H](C)CN([C@@H](C)CO)C3=O)n(C)n1 | 0.11 | -12 | 3.0 | -34
C[C@@H]1CN([C@@H](C)CO)C(=O)Cc2cc(NC(=O)C3CC3)ccc2O[C@@H]1CN(C)C(=O)Nc1ccc2c(c1)OCO2 | -0.013 | 4 | -0.3 | -5
C[C@@H]1CN([C@H](C)CO)C(=O)Cc2cc(NC(=O)Cn3cnnn3)ccc2O[C@@H]1CN(C)C(=O)Nc1ccccc1 | -0.21 | -3 | 2.9 | -1
C[C@H](CO)N1C[C@H](C)[C@@H](CN(C)Cc2ccc(-c3ccccc3)cc2)Oc2c(NS(=O)(=O)c3ccc(F)cc3)cccc2C1=O | 0.17 | 5 | x | -40
Cc1cccc(NC(=O)Cn2nc(-c3ccc(Cl)cc3)c3ccccc3c2=O)c1 | x | 9 | -0.6 | x
COc1ccc(NC(=O)Nc2cccc3c2O[C@@H](CN(C)C(=O)Nc2ccc(C(F)(F)F)cc2)[C@@H](C)CN([C@H](C)CO)C3=O)cc1 | -0.19 | -3 | -0.8 | -12
COC(=O)c1cc(C)cc(O)c1C(=O)c1c(O)cccc1O | 0.078 | x | x | -10
C[C@H](CO)N1C[C@H](C)[C@H](CN(C)S(C)(=O)=O)Oc2ccc(NC(=O)Cc3cn(C)c4ccccc34)cc2CC1=O | -0.011 | 10 | x | 11
O=S1(=O)C=C(SCCN2CCOCC2)c2ccccc21 | -0.28 | -31 | 0.4 | 12
Cc1noc(C)c1NC(=O)Nc1ccc2c(c1)C(=O)N([C@H](C)CO)C[C@H](C)[C@H](CN(C)S(=O)(=O)c1c(C)noc1C)OCCCC[C@@H](C)O2 | 0.053 | -14 | 0.6 | -8
O=C(COc1cc(Cl)c(Cl)cc1Cl)NCCN1CCOCC1 | x | 7 | 1.2 | x
NC(=O)c1ccccc1NC(=O)COc1cc(Cl)c(Cl)cc1Cl | x | -25 | -0.9 | x
Cc1noc(C)c1NC(=O)Nc1cccc2c1O[C@@H](CN(C)C(=O)Nc1cccc3ccccc13)[C@@H](C)CN([C@H](C)CO)C2=O | 0.91 | 0 | 1.3 | -38
CC(C)NC(=O)N(C)C[C@H]1Oc2ccc(NS(=O)(=O)c3cn(C)cn3)cc2CC(=O)N([C@H](C)CO)C[C@H]1C | -0.19 | -12 | 1.7 | 4
CC(C)NC(=O)Nc1cccc2c1O[C@@H](CN(C)S(=O)(=O)c1ccc(F)cc1)[C@H](C)CN([C@@H](C)CO)C2=O | -0.013 | -1 | 2.9 | 4
C[C@H]1CN([C@@H](C)CO)C(=O)c2cccc(NC(=O)Nc3ccc(F)cc3)c2O[C@H]1CN(C)CC1CC1 | -0.19 | -9 | 1.3 | -11
C[C@H]1CN([C@@H](C)CO)C(=O)c2cccc(NC(=O)Nc3ccccc3)c2O[C@H]1CN(C)C(=O)Nc1ccccc1 | 0.37 | 12 | -0.5 | 17
COc1ccc(S(=O)(=O)Nc2ccc3c(c2)CC(=O)N([C@H](C)CO)C[C@H](C)[C@H](CN(C)S(=O)(=O)c2ccc(F)cc2)O3)cc1 | -0.021 | -7 | x | 11
C[C@@H]1CN([C@H](C)CO)C(=O)Cc2cc(NC(=O)NC3CCCCC3)ccc2O[C@H]1CN(C)Cc1ccccc1 | -0.16 | -8 | 0.4 | 13
Cc1cc(Cl)ccc1N(CC(=O)Nc1c(C)n(C)n(-c2ccccc2)c1=O)S(C)(=O)=O | x | -8 | 3.0 | x
CC(C)NC(=O)Nc1ccc2c(c1)CC(=O)N([C@@H](C)CO)C[C@H](C)[C@H](CN(C)Cc1ccc(C(F)(F)F)cc1)O2 | -0.11 | -5 | 0.1 | 12
COc1ccc(CN(C)C[C@@H]2Oc3ccc(NC(=O)Cc4ccccc4)cc3C(=O)N([C@@H](C)CO)C[C@@H]2C)cc1 | -0.5 | 1 | -0.4 | 9
N/C(CN1CCCCC1)=N\O | 0.14 | 3 | -2.9 | 5
Cc1cc(C)nc(Nc2n[nH]c(-c3cccnc3)n2)n1 | x | -120 | 2.6 | x
COc1ccc(S(=O)(=O)N(C)C[C@H]2OCCCC[C@@H](C)Oc3ccc(NC(=O)Nc4cccc5ccccc45)cc3C(=O)N([C@H](C)CO)C[C@@H]2C)cc1 | 0.042 | -6 | x | -13
CC(C)NC(=O)Nc1ccc2c(c1)C(=O)N([C@H](C)CO)C[C@@H](C)[C@@H](CN(C)Cc1ccccc1)O2 | -0.4 | 1 | x | x
C[C@@H]1CN([C@H](C)CO)C(=O)Cc2cc(NS(=O)(=O)c3cn(C)cn3)ccc2O[C@H]1CN(C)S(=O)(=O)c1ccc(F)cc1 | 0.43 | -1 | 2.6 | -17
C[C@H](NC[C@H](O)CP(=O)(O)CC1CCCCC1)c1ccc(Cl)c(Cl)c1 | 0.13 | 6 | x | 39
Cc1[nH]n(-c2ccccc2)c(=O)c1Cc1c(Cl)cccc1Cl | 0.51 | -8 | -0.7 | x
CC(C)C1NC(=O)/C(=C/c2cnc[nH]2)NC1=O (stereo unspecified) | -0.48 | x | x | -49
C[C@H](CO)N1C[C@H](C)[C@@H](CN(C)Cc2ccc(C(=O)O)cc2)Oc2c(NC(=O)Nc3ccc4c(c3)OCO4)cccc2C1=O | -0.091 | -1 | x | 0
CC(C)NC(=O)N(C)C[C@H]1Oc2c(NC(=O)C3CCCCC3)cccc2C(=O)N([C@H](C)CO)C[C@H]1C | -0.27 | -16 | x | -29
C[C@H]1CN([C@@H](C)CO)C(=O)c2cc(NC(=O)NC3CCCCC3)ccc2O[C@H]1CN(C)C(=O)NC1CCCCC1 | 0.13 | 4 | 0.1 | 8
Cc1c(C#N)c(SCc2cccc(C(F)(F)F)c2)nc2ccccc12 | -0.14 | 19 | 3.9 | -11
C[C@@H]1CN([C@H](C)CO)C(=O)c2cc(NS(=O)(=O)c3ccccc3)ccc2O[C@H]1CN(C)S(=O)(=O)c1ccccc1 | -0.097 | -1 | -2.2 | x
C[C@@H]1CN([C@H](C)CO)C(=O)Cc2cc(NC(=O)C3CCCCC3)ccc2O[C@H]1CN(C)Cc1ccccc1 | -0.28 | -6 | x | -18
COc1ccc(NC(=O)Nc2ccc3c(c2)C(=O)N([C@@H](C)CO)C[C@H](C)[C@@H](CN(C)C)O3)cc1 | -0.12 | -3 | x | x
Cc1noc(C)c1NC(=O)Nc1cccc2c1O[C@H](CN(C)CC1CC1)[C@H](C)CN([C@H](C)CO)C2=O | 0.27 | 0 | 0.9 | -44
O=C(NCCc1ccccc1)N1c2ccccc2Sc2ccccc21 | -0.28 | 43 | -0.1 | 92*
C[C@H](CO)N1C[C@H](C)[C@H](CN(C)Cc2ccc(C(F)(F)F)cc2)Oc2ccc(NC(=O)C3CC3)cc2CC1=O | 0.055 | -4 | x | x
Cc1noc(C)c1NC(=O)Nc1cccc2c1O[C@@H](CN(C)CC1CC1)[C@H](C)CN([C@@H](C)CO)C2=O | -0.15 | 1 | 1.0 | -2
COc1ccc(NC(=O)Nc2ccc3c(c2)C(=O)N([C@@H](C)CO)C[C@H](C)[C@H](CN(C)C(=O)NC2CCCCC2)O3)cc1 | 0.011 | -4 | 0.7 | 18
C[C@@H]1CN([C@H](C)CO)C(=O)Cc2cc(NC(=O)c3ccncc3)ccc2O[C@@H]1CN(C)Cc1ccc(-c2ccccc2)cc1 | -0.19 | 13 | -1.1 | 58
C[C@@H]1CCCCO[C@H](CN(C)Cc2ccc(Cl)c(Cl)c2)[C@@H](C)CN([C@H](C)CO)C(=O)c2cc(NC(=O)Cc3ccccc3)ccc2O1 | 0.26 | 15 | -5.1 | 4
C[C@@H]1CN([C@H](C)CO)C(=O)c2cc(NC(=O)Nc3ccccc3)ccc2O[C@@H]1CN(C)C(=O)Nc1ccccc1 | 0.32 | -2 | 0.5 | x

An excerpt (hit frequency here may not be typical).
